# Screening data from PubChem.
# ugtP null kill = growth inhibition of ugtP-null S. aureus, primary screen, RN4220 ugtP deletion, OD600 | AID 1259309, 2017 | growth inhibition, % (no concentration beside the values) | 16 h; some inactives read as strong as hits | 0.54% of 330,000 active;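 active = z-score under -3 and OD600 up to 0.15 on both plates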;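 note: plate controls were untreated wells for no effect and antibiotic for full effect; wells of about 80 µL received 100 nL stock; the first replicate is given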
# Sa RN4220 lethal = growth inhibition of S. aureus RN4220, primary screen, OD600; 16 h; inhibition, % (test concentration not listed); 0.33% of 330,000 active; AID 1259311, 2017;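 active = z-score of -3 or lower and OD600 up to 0.18 on both plates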;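 note: plate controls were untreated cells for no effect and reference antibiotic for full effect; stock transfer was 100 nL into about 80 µL; one replicate is shown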
# Mtb hypoxia inh = PubChem AID 1159583; M. tuberculosis hypoxia-regulated fluorescent reporter, fluorescence; 0.1% of 300,000 active; fluorescence inhibition, % (concentration not given with the values);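 active = 35 to 45% if threefold the growth effect, above 45% if 1.5-fold the growth effect; inactive = the rest, general growth blockers included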;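 note: wells of about 50 µL received 100 nL stock; 0% = vehicle wells and 100% = reference inhibitor wells; whole bacteria with a GFP reporter of the hypoxia response; strong numbers were not always called active; many hits fall short of the cut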
# PrP 5UTR inh = inhibition of PrP 5' UTR reporter expression; cell-based PrP 5' UTR mRNA reporter, plate reader; inhibition, % (no concentration beside the values); AID 488862, 2010; 0.35% of 340,000 active;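 active = every replicate at 50% or more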;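 note: 0 = median of the neutral control wells; tested in H4 reporter cells; numbers are from one replicate; inactives centre near -14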
# Bead autofluor = compound fluorescence in toxin protease inhibitor counterscreen | compound autofluorescence counterscreen, microsphere flow cytometry; active compounds read high | fluorescence intensity (test concentration not listed) | 3.1% of 360,000 active | AID 624483;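 active = at least 3 SD above the mean of all compounds, about 16000 in these data; inconclusive = too few beads counted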;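 note: 100 nL of 1 mM stock went into each well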
# BJeLR lethal = MLPCN primary cell-based screen for lethality selective to Ras in HRASV12 cells; BJeLR (HRASV12) viability, CellTiter-Glo ATP luminescence, 48 h; reference of the scale not given here; 0.17% of 300,000 active; inhibition, % (concentration not given with the values);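 active = replicate mean above 50%; inconclusive = above 50% but judged a plate artefact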;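 note: 50 nL library stock added to about 25 µL; numbers are from one replicate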
# Mtb hypoxia inh growth = also measured in Mtb hypoxia inh; calls as there; growth inhibition, %; measured here: M. tuberculosis growth (absorbance);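 0% = vehicle and 100% = reference antibiotic; read after six days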
# * hit, by the source's call; ? = inconclusive; . = not tested or not shown.
no.	compound	ugtP null kill	Sa RN4220 lethal	Mtb hypoxia inh	Mtb hypoxia inh growth
1	Cc1nc2ccccn2c1C(=O)NNC(=O)Nc1ccccc1	9	3.2	-3	-4
2	Cc1ccc(C)c(NC(=O)CN(C)C(=O)C2CCN(S(=O)(=O)c3ccc4c(c3)OCCO4)CC2)c1	10	1.6	5	6
3	CC(C)CCNC(=O)C(c1ccc(O)cc1)N(Cc1cccs1)C(=O)C1COc2ccccc2O1 (configuration not stated)	-2	0.0	4	10
4	COc1ccc(N2CCN(C(=O)CSc3nnc(Cn4nnc5ccccc54)n3C)CC2)cc1	0	3.7	18	6
5	Cn1nnnc1SCc1cccc(CSc2nnnn2C)n1	5	1.1	9	3
6	Cc1ccc(NC(=O)C2CCN(c3ncnc4c3nc3n4CCCCC3)CC2)cc1Cl	12	0.8	5	-3
7	O=C(Nc1ccc(F)cc1)NC1CCN(Cc2ccccc2)CC1	5	0.7	13	2
8	O=C(Nc1ccc(Cc2ccncc2)cc1)c1ccc(S(=O)(=O)N2CCOCC2)cc1	-1	2.0	-8	-6

no.	PrP 5UTR inh	Bead autofluor	BJeLR lethal
1	-22	4318	4
2	-20	?	9
3	7	2554	-2
4	-41	9197	-2
5	5	15289	5
6	-5	4614	5
7	-3	2339	1
8	5	4527	10

# Additional compounds follow:
no.	compound	ugtP null kill	Sa RN4220 lethal	Mtb hypoxia inh	Mtb hypoxia inh growth
9	CC(=O)Nc1c(Cl)c(Cl)c2c(c1Cl)C(=O)c1cc(Cl)ccc1-2	-2	18	8	6
10	CC(C)COc1ccc(C(=O)N/C(=C\c2cccc([N+](=O)[O-])c2)C(=O)O)cc1	11	7.3	11	-6
11	COC(c1ccc(Cl)cc1)(c1ccc(Cl)cc1)C(Oc1nc(C)cc(C)n1)C(=O)O (configuration not stated)	-4	-1.8	4	9
12	O=C(N/N=C/c1c(Cl)cccc1Cl)C(=O)NC1CC1	.	.	.	.
13	Cn1c(SCC(=O)NN=C/C=C\c2ccccc2[N+](=O)[O-])nc2ccccc21	-1	5.7	1	7
14	C=CCCN(Cc1ccccc1)S(=O)(=O)c1ccccc1Br	16	8.1	10	8
15	Nc1ccc(Cl)cc1/C(=N/O)c1ccccc1	.	.	.	.
16	O=C(Nc1cccc(Cl)c1)N1CCSc2cc(Cl)ccc21	-24	-6.1	3	-2

no.	PrP 5UTR inh	Bead autofluor	BJeLR lethal
9	-5	3516	.
10	-26	4518	-4
11	-32	3091	-9
12	-18	4643	-2
13	.	.	.
14	-12	3901	0
15	-6	5138	1
16	-21	19711*	-1

# Further compounds
no.	compound	ugtP null kill	Sa RN4220 lethal	Mtb hypoxia inh	Mtb hypoxia inh growth
17	C=CCNC(=S)Nc1ccc2nc(C)c(C)nc2c1	-5	-0.8	4	5
18	COC(=O)c1ccc(NC(=O)C(OC)c2ccccc2)cc1 (configuration not stated)	3	0.5	2	11
19	O=C(O/N=C/c1cccc([N+](=O)[O-])c1)C1CC1	.	.	.	.
20	Cc1ccc(C)c(OCC(=O)N2CCCN(C)CC2)c1	8	7.0	.	.
21	Cc1ccc(S(=O)(=O)NCCC(=O)NNC(=O)C2COc3ccccc3O2)cc1 (configuration not stated)	3	2.6	14	-1
22	O=C(NCc1ccc(Cl)cc1)NCC(F)(F)F	1	-1.4	14	11
23	Cc1ccc(S(=O)(=O)N2c3ccccc3NC(=O)C2CC(=O)Nc2ccccc2)cc1 (configuration not stated)	-3	5.0	.	.
24	COc1ccc(N2C(=O)C3NN=C(C(=O)OCc4ccccc4)C3C2=O)cc1 (configuration not stated)	0	4.2	3	0

no.	PrP 5UTR inh	Bead autofluor	BJeLR lethal
17	-15	?	-3
18	-26	3721	-3
19	-13	2950	0
20	-24	2585	-2
21	-13	4472	2
22	-12	2411	12
23	-16	3682	-8
24	-5	4437	-5

# Other compounds follow.
no.	compound	ugtP null kill	Sa RN4220 lethal	Mtb hypoxia inh	Mtb hypoxia inh growth
25	COc1ccc(/C=C/C(=O)OCC(=O)Nc2ccc(Cl)cn2)cc1	5	3.3	11	6
26	CCn1c(C)nc2cc(-c3nnc(-c4c(-c5ccccc5)noc4C)o3)ccc21	-16	5.2	-4	4
27	O=C(CSc1nnc(-c2ccc(Cl)cc2Cl)n1C1CCCCC1)N1CCCC1	-6	0.7	.	.
28	Cc1ccc(C(=O)Nc2cc3c(oc2=O)CCCC3=O)cc1	8	2.0	10	9
29	CCOC(=O)Cc1csc(NC(=O)CSc2nnnn2-c2ccc(C)cc2C)n1	-2	-1.0	.	.
30	O=C(c1cnc2sccn2c1=O)N1CCc2ccccc2C1	1	2.4	6	-4
31	Cc1c(C(=O)O)oc2ccc(S(=O)(=O)N3CCCCC3C(=O)O)cc12 (configuration not stated)	0	1.3	.	.
32	O=C(Nc1ccccc1N1CCCC1)c1cccnc1	-5	5.6	4	16

no.	PrP 5UTR inh	Bead autofluor	BJeLR lethal
25	-15	4879	11
26	-9	16285*	4
27	-12	4933	-1
28	-53	5366	8
29	-9	4916	-4
30	-32	9158	0
31	-6	3998	-9
32	-19	?	7

# In a second layout: results already given
25	COc1ccc(/C=C/C(=O)OCC(=O)Nc2ccc(Cl)cn2)cc1
30	O=C(c1cnc2sccn2c1=O)N1CCc2ccccc2C1
31	Cc1c(C(=O)O)oc2ccc(S(=O)(=O)N3CCCCC3C(=O)O)cc12 (configuration not stated)
28	Cc1ccc(C(=O)Nc2cc3c(oc2=O)CCCC3=O)cc1
26	CCn1c(C)nc2cc(-c3nnc(-c4c(-c5ccccc5)noc4C)o3)ccc21

assay / compound | 25 | 30 | 31 | 28 | 26
ugtP null kill | 5 | 1 | 0 | 8 | -16
Sa RN4220 lethal | 3.3 | 2.4 | 1.3 | 2.0 | 5.2
Mtb hypoxia inh | 11 | 6 | . | 10 | -4
Mtb hypoxia inh growth | 6 | -4 | . | 9 | 4
PrP 5UTR inh | -15 | -32 | -6 | -53 | -9
Bead autofluor | 4879 | 9158 | 3998 | 5366 | 16285*
BJeLR lethal | 11 | 0 | -9 | 8 | 4

# (continued)
no.	compound	ugtP null kill	Sa RN4220 lethal	Mtb hypoxia inh	Mtb hypoxia inh growth
33	CCOC(=O)c1[nH]c(C)c(C(=O)OCC(=O)N2CCc3ccccc32)c1C	5	1.9	5	8
34	Cn1nc(C(C)(C)C)cc1C(=O)Nc1nc2c(s1)C(=O)CC(C)(C)C2	11	3.5	8	11
35	COc1ccc(C(=S)N2CCOCC2)cc1OC(=O)c1ccccc1Cl	2	2.2	5	0
36	CCO[C@@H]1OC(C(=O)O)=C[C@H](C2CCCCC2)[C@H]1CCCO	.	.	.	.
37	Cc1noc(C)c1COC(=O)c1cccc(S(=O)(=O)N2CCOCC2)c1	-6	0.9	3	10
38	Cc1cc(Cl)c2cc3ccccc3cc2n1	53	2.1	7	1
39	CCC(=O)NNc1ncnc2ccccc12	10	3.8	-4	5
40	CP(=O)(Nc1ccc(Cl)cc1)c1nc2c(s1)CCCC2 (configuration not stated)	-2	2.9	5	3

no.	PrP 5UTR inh	Bead autofluor	BJeLR lethal
33	-23	11154	2
34	-14	22625*	11
35	-7	4734	-2
36	-35	3468	7
37	-21	5075	-4
38	-23	3728	1
39	-15	2700	0
40	-31	4233	11

# (listing goes on)
no.	compound	ugtP null kill	Sa RN4220 lethal	Mtb hypoxia inh	Mtb hypoxia inh growth
41	Cc1ccsc1CNC(=O)c1c(-c2ccccc2)noc1C	11	12	8	6
42	CCOC(=O)COc1ccc(C2CC(C)=NN2c2ccccc2)cc1 (configuration not stated)	10	-1.9	1	2
43	CCOc1ccccc1C(=O)N1CCC(C(=O)c2ccc(F)cc2)CC1	-3	-1.4	7	7
44	O=C(O)C1=C(OCc2ccc(F)c(F)c2)C(=O)NCC1	6	4.8	8	1
45	CC1CCCCC1NC(=O)CCn1c(=O)sc2ccccc21 (configuration not stated)	-2	1.9	5	6
46	COc1cc(-n2c(=O)c3ccccc3n(Cc3cc(=O)n4ccccc4n3)c2=O)cc(OC)c1OC	1	4.0	6	2
47	O=C(CSc1nnc(-c2ccncc2)o1)NCc1ccc(Cl)cc1	-2	1.9	3	14
48	O=C(CCCOc1ccccc1)N1CCN(c2ccc(F)cc2)CC1	2	-1.3	.	.

no.	PrP 5UTR inh	Bead autofluor	BJeLR lethal
41	-4	.	-1
42	14	4280	-3
43	-6	10431	-10
44	-16	4739	-7
45	-12	5042	-2
46	-12	1958	-3
47	-27	2523	5
48	-27	2336	8

# (cont.)
no.	compound	ugtP null kill	Sa RN4220 lethal	Mtb hypoxia inh	Mtb hypoxia inh growth
49	Cc1ccc(N(C(=O)C2CCC(=O)N2)C2(C(=O)NC3CCCCC3)CCCCC2)cc1 (configuration not stated)	9	-5.0	.	.
50	O=C(Cn1c(-c2ccccn2)nc2ccccc21)N/N=C/c1cccnc1	.	.	.	.
51	CNC(=O)c1sccc1Oc1ccc(F)cc1[N+](=O)[O-]	-2	1.7	4	5
52	CCSC(C)CC1CC(=O)CC(=O)C1 (configuration not stated)	9	-0.5	.	.
53	COc1ccc(C(=O)NC(=O)NC2(C(Cl)(Cl)Cl)OCCO2)cc1	16	6.2	-4	7
54	O=C(CN1CCC(Cc2ccccc2)CC1)NCCc1ccc(F)cc1	-3	6.6	1	0
55	Cc1ccc(NC(=O)c2ccc(S(=O)(=O)Nc3c(C)n(C)n(-c4ccccc4)c3=O)cc2)nc1	5	4.3	-10	-8
56	CCOc1nc(NC2CCCCC2)nc(NC(C)(C)C)n1	-15	-7.4	.	.

no.	PrP 5UTR inh	Bead autofluor	BJeLR lethal
49	-11	.	12
50	-27	4175	-14
51	-19	4177	4
52	-2	4246	-1
53	-25	5151	-2
54	-2	3241	-1
55	-8	?	9
56	-16	4729	4

# Further structures:
no.	compound	ugtP null kill	Sa RN4220 lethal	Mtb hypoxia inh	Mtb hypoxia inh growth
57	Cc1cc(C)c(C#N)c(SCCN2CCOCC2)n1	3	6.4	-9	-1
58	C/C(=N\NC(=O)c1c(Cl)c(C)nn1C)c1ccc(NC(=O)COc2ccc(Cl)cc2C)cc1	.	.	.	.
59	Clc1ccc(Cn2nnc(-c3ccc(N4CCOCC4)cc3)n2)cc1	-1	0.9	5	3
60	COc1ccc(CNC(=O)Cn2c(=O)oc3cc(S(=O)(=O)N4CCCC4)ccc32)cc1	1	-1.5	-4	-7
61	CCOCc1nnc(NS(C)(=O)=O)s1	11	6.8	-5	-13
62	O=C(CCc1ccccc1)NCc1cccnc1	9	0.8	.	.
63	COc1ccccc1Cn1c(-c2ccco2)nc2nc3ccccc3nc21	-11	4.6	-2	9
64	Cc1onc(-c2ccccc2)c1C(=O)NCc1ccc(F)cc1	-1	8.4	11	13

no.	PrP 5UTR inh	Bead autofluor	BJeLR lethal
57	-25	4652	-4
58	-21	2651	-2
59	-50	12804	-14
60	-5	5969	-5
61	-12	15978	6
62	-21	4797	2
63	-18	5321	-14
64	-17	5878	-8

# Further records.
no.	compound	ugtP null kill	Sa RN4220 lethal	Mtb hypoxia inh	Mtb hypoxia inh growth
65	CCOC(=O)c1ccc(N2C(=O)C3ON(c4ccccc4)C(c4ccco4)C3C2=O)cc1 (configuration not stated)	3	2.2	1	12
66	CCCCN(C)CCNC(=O)C1CCN(S(=O)(=O)c2cccc3nsnc23)CC1	4	2.0	-7	-5
67	CCOc1ccc(C(=O)NCC(=O)NCCSc2ccc(Br)cc2)cc1OCC	8	3.4	8	4
68	NC(=O)c1ccccc1	8	7.4	10	2

no.	PrP 5UTR inh	Bead autofluor	BJeLR lethal
65	-10	5657	2
66	-28	5219	-4
67	-25	3940	.
68	-6	4467	-6

# Copied from the entries so far (3 entries):
no.	compound	ugtP null kill	Sa RN4220 lethal	Mtb hypoxia inh	Mtb hypoxia inh growth
63	COc1ccccc1Cn1c(-c2ccco2)nc2nc3ccccc3nc21	-11	4.6	-2	9
64	Cc1onc(-c2ccccc2)c1C(=O)NCc1ccc(F)cc1	-1	8.4	11	13
65	CCOC(=O)c1ccc(N2C(=O)C3ON(c4ccccc4)C(c4ccco4)C3C2=O)cc1 (configuration not stated)	3	2.2	1	12

no.	PrP 5UTR inh	Bead autofluor	BJeLR lethal
63	-18	5321	-14
64	-17	5878	-8
65	-10	5657	2
